Screening data from PubChem.
HPGD inh: qHTS Assay for Inhibitors of HPGD (15-Hydroxyprostaglandin Dehydrogenase). 15-hydroxyprostaglandin dehydrogenase [NAD(+)] (Homo sapiens), P15428. Potency, µM, without a hit: at the highest dose activity change, negative = inhibition, most hits filed as inhibitors. 150,000 tested, 4.3% active. AID 894, 2007. purified HPGD, NADH fluorescence kinetic, PGE2 substrate; active = well fitted inhibition curve with a large enough effect (not every such curve was filed as active); inconclusive = small, poorly fitted or top-dose-only effect, or another doubt; inactive = no such curve, though single readings can be large or run the other way;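 also: top concentration of the series not given in the record; plate controls included wells without enzyme; inactives centre near -10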
Target sequence (P15428 whole entry, looked up): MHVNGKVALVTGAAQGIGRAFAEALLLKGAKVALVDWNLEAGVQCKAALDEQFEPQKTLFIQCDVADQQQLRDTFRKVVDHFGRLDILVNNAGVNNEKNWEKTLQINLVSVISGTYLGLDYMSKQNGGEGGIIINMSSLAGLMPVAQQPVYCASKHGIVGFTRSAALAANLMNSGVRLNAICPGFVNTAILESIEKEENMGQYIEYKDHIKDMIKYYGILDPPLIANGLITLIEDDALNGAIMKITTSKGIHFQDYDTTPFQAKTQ
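20 nM HPGD preincubated 15 min at room temperature with compound in 50 mM Tris-HCl pH 8, 0.01% Tween 20. Started with 1 mM NAD+ and 30 uM prostaglandin E2; NADH fluorescence (360/450 nm) read 5 times over 30-s intervals, last minus first.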
Starred values were filed as active, the others as inactive; u = inconclusive; & = joins results of further samples. % is scaled to controls: 0 for no effect and ±100 for the full control effect; potency is read from the fitted curve at half-maximal effect. Some of the compounds tested. The share of hits here may be higher or lower than overall.

HPGD inh	SMILES
u	CN(C)c1ncnc2ccc(-c3ccccc3C#N)cc12
-9.7%	O=S(=O)(NCCc1csc(-c2cccnc2)n1)c1ccc2c(c1)OCCO2
-15.0%	Cc1cc(NC(=O)C2CCN(S(=O)(=O)Cc3ccccc3)CC2)ccc1-n1cnnn1
-23.8%	CCOc1cc2oc(=O)c3c(c2cc1Cl)CCC3
-3.1%	CCC(=O)NCCc1nc2ccccc2n1Cc1ccccc1
-2.1%	Cc1ccc(C)c(OCCCC(=O)Nc2ccc(N3CCOCC3)cc2)c1
-17.5%	COc1ccccc1-c1nc(-c2ccc(C)nc2OC)no1
-12.9%	Cc1ccc(N(CC(=O)NCc2ccc3c(c2)OCO3)S(=O)(=O)c2c(C)noc2C)cc1
-1.5%	C=C(N(C)C)[C@]1(C)C[C@H]1[C@H](NC(=O)CNC(=O)OCc1ccccc1)c1ccccc1
-20.0%	CC1=CS(=O)(=O)CC1Sc1ncn[nH]1 (centres undefined)
-11.1%	CN(C)c1nc(NCc2ccccc2)nc(SCC(=O)Nc2ccc(Cl)c(Cl)c2)n1
-8.5%	C[C@H](NC(=O)Nc1ccccc1F)C(=O)O
-6.4%	CCc1n[nH]c2c1/C(=N\O)CC(C)(C)C2
-15.2%	CCOC(=O)/C(C#N)=C1/C=CN(c2ccccc2)C=N1
-0.7%	Cc1ccc(C)c(NC(=O)CCC(=O)N/N=C/c2ccc[nH]2)c1
1.6%	CN(C)CC1CCCCC1OC(=O)c1ccc(Cl)cc1Cl (centres undefined)
-17.2%	CCN(N=Nc1cccc([N+](=O)[O-])c1)c1cccc([N+](=O)[O-])c1
-8.9%	Cc1ccc(C2=CC(C)(c3ccc(C)cc3)Nc3nc(C(F)(F)F)nn32)cc1 (centres undefined)
-6.4%	COc1ccc(NC(=O)CSc2[nH]c(=O)cc(C)c2C#N)cc1OC
-27.3%	CCOC(=O)C1=C(CSc2nc(-c3ccncc3)ccc2C#N)OC(N)=C(C#N)C1c1ccc(OC)cc1 (centres undefined)
-4.3%	Cc1cccc(Oc2ncnc(N)c2[N+](=O)[O-])c1C
-1.3%	N#CC1=C(N)Oc2c(oc(CO)cc2=O)C12C(=O)Nc1ccc(Cl)cc12 (centres undefined)
u	CCNC(=S)N(Cc1ccccc1)Cc1nc2ccccc2c(=O)[nH]1
u	COC(=O)c1c(OC)cc2c(c1C)Oc1c(Cl)c(O)c(Cl)c(C)c1C(=O)O2
-25.4%	c1ccc(CN2CCN(c3nc(-c4ccccc4)nc4ccccc34)CC2)cc1
-14.5%	Cc1cc(C)cc(NC(=O)C2CCCN(c3nccc(C)n3)C2)c1 (centres undefined)
u	O=C(Nc1ccc(Cl)c(Cl)c1)N1CC=CCC1
-8.1%	Cc1ccccc1N1CCN(C(=O)c2ccccc2NC(=O)/C=C\C(=O)O)CC1
-9.6%	CC(C)Sc1nc(N2CCCC2)c2c(c1C#N)CC(C)(C)OC2
-8.2%	Cc1onc(-c2ccccc2Cl)c1C(=O)NCc1ccccn1
14.1µM*	Cc1nc(-c2cccc(NS(=O)(=O)c3ccccc3)c2)cs1
-13.1%	CCNC(=S)SCCOc1ccc(C)cc1
-22.2%	CCCN(CC1CC1)C(=O)COc1ccccc1C(=O)NCc1ccccc1
2.2%	CC(C)c1ccc(C2NC(C(=O)O)CS2)cc1 (centres undefined)
0.5%	Cc1nc(SCC#N)c2c3c(sc2n1)CCC3
-6.6%	COc1ccc(C)cc1S(=O)(=O)N1CCN(S(=O)(=O)c2cc(C)ccc2OC)C(C)C1 (centres undefined)
-5.5%	S=C1SCN(CCN2CCOCC2)CN1Cc1ccccc1
-9.3%	CCCc1cc(-n2cnc3ccccc32)n2c(nc3ccccc32)c1C#N
-12.4%	CCC(C(=O)OCC(=O)Nc1ccc(C(=O)Nc2ccc(OC)cc2)cc1)c1ccccc1 (centres undefined)
u	Cc1cc(C(=O)CN2C(=O)NC(c3ccccc3)(c3ccccc3)C2=O)c(C)n1Cc1ccco1

Two entries drawn at random from those above, as already listed:
HPGD inh	SMILES
-8.1%	Cc1ccccc1N1CCN(C(=O)c2ccccc2NC(=O)/C=C\C(=O)O)CC1
2.2%	CC(C)c1ccc(C2NC(C(=O)O)CS2)cc1 (centres undefined)

Returning to the listing, repeating the six entries before the break.
HPGD inh	SMILES
0.5%	Cc1nc(SCC#N)c2c3c(sc2n1)CCC3
-6.6%	COc1ccc(C)cc1S(=O)(=O)N1CCN(S(=O)(=O)c2cc(C)ccc2OC)C(C)C1 (centres undefined)
-5.5%	S=C1SCN(CCN2CCOCC2)CN1Cc1ccccc1
-9.3%	CCCc1cc(-n2cnc3ccccc32)n2c(nc3ccccc32)c1C#N
-12.4%	CCC(C(=O)OCC(=O)Nc1ccc(C(=O)Nc2ccc(OC)cc2)cc1)c1ccccc1 (centres undefined)
u	Cc1cc(C(=O)CN2C(=O)NC(c3ccccc3)(c3ccccc3)C2=O)c(C)n1Cc1ccco1
-12.2%	COc1cccc(/C=N/n2c(-c3ccco3)nc3ccccc3c2=O)c1OC
4.5%	CCOC(=O)N1CCN(C(=O)CN(Cc2ccc(Cl)cc2)S(=O)(=O)c2ccc(C)cc2)CC1
-13.6%	Cn1c(N)c(C(=O)CCl)c(=O)n(C)c1=O
1.4%	CCN(CC)CCN1C(=O)C(=O)/C(=C(/O)c2ccc(Cl)cc2)C1c1ccncc1 (centres undefined)
-18.8%	N#C/C(=C\c1cn(Cc2cccc(F)c2)c2ccccc12)C(=O)NCc1ccco1
u	Cc1ccc(Cl)cc1-c1ccc(C=Nc2ccc(N3CCOCC3)cc2)o1
-13.0%	CCC/C(=N/NC(=O)c1cccc(Cl)c1)c1ccccc1
2.24µM*	COc1cccc(/C=N/n2c(-c3cccs3)n[nH]c2=S)c1
-14.3%	COCCCn1c(SCc2nc3ccccc3c(=O)[nH]2)nc2ccccc2c1=O
-17.5%	CCN(CC(=O)NC(=O)NC1CCCCC1)Cc1nc2ccccc2c(=O)[nH]1
-3.5%	O=C(CNC(=O)c1cccs1)NCCN1CCN(Cc2ccccc2)CC1
-14.3%	COc1ccccc1NC(=O)Cn1c(=O)n(CCc2c[nH]c3ccccc23)c(=O)c2cccnc21
-12.9%	N/C(=N\OC(=O)Cc1cccc2ccccc12)c1ccccn1
-15.3%	COc1ccccc1/C=N/NC(=O)c1ccccc1NS(=O)(=O)c1ccc(C)cc1
-9.9%	C=CCSc1nnc(Cc2cc(=O)[nH]c(=O)[nH]2)n1-c1cc(C)ccc1C
-16.8%	COC(=O)c1ccc(/C=N/NC(=O)c2cccc(F)c2)cc1
-4.5%	COc1cc(NC(=O)c2cc(C(C)C)on2)cc(OC)c1OC
0.2%	Cc1c(-c2ccc(Cl)cc2)noc1C1CCN(CCc2ccccc2)CC1
-4.7%	O=C(/C=C/Nc1cccc([N+](=O)[O-])c1)c1cccs1
u	O=C(COc1ccc(F)cc1)Nc1nccs1
-4.1%	CCOC(=O)c1nc(C)n(-c2ccc(Cl)cc2Cl)n1
-3.9%	O=C(Nc1ccccc1N1CCOCC1)c1ccc2c(c1)C(=O)N(Cc1ccncc1)C2=O
-7.5%	COC(=O)c1ccnc(/C=N/O)c1
u	CCc1nc(N2CCN(c3nc(C)cc(C)n3)CC2)c2oc3ccccc3c2n1
-7.9%	COc1ccc(C(=O)C(CN2CCCC2)c2ccccc2)cc1 (centres undefined)
-13.1%	CCOc1cc(C)nc(N2CCC(C(=O)Nc3ccccc3OCC)CC2)n1
-10.3%	COc1ccc(S(=O)(=O)NC(C)C(=O)Nc2cccc(C(C)=O)c2)cc1 (centres undefined)
-10.4%	c1ccc([C@H]2CC3C[C@@H](c4ccccc4)N2O3)cc1
-6.7%	CN=C(N)/N=C(\N)Nc1cc2ccccc2c2ccccc12
u	O=c1ccc2ccc(O)cc2o1
-3.2%	CN(C)c1nc(N)c([N+](=O)[O-])c(NCCO)n1
-7.4%	CC(C)N(C(=O)COC(=O)c1ccccc1C(=O)N1CCN(c2ccc(F)cc2)CC1)C(C)C
-7.8%	O=C1C=C(NCc2ccco2)CC(c2ccc(Cl)cc2)C1 (centres undefined)
-10.4%	Cc1cc(Nc2ncc(Cl)cc2Cl)n(-c2ccccn2)n1
-8.7%	O=c1cc(-c2cccc(F)c2)[nH]c2cc(F)ccc12
-4.1%	C=CCN(CC=C)Cc1ccc(C(=O)OC)o1
-7.3%	Cc1ccn2cc(C(=O)NC3CCN(Cc4ccccc4)CC3)nc2c1
-14.2%	CC(=N[C@@H]1CCCC[C@H]1N=C(C)c1ccccc1O)c1ccccc1O
-9.6%	COCCNC(=O)C(c1cccs1)N(C(=O)Cn1nnc2ccccc21)c1ccc(OC)cc1 (centres undefined)
-22.5%	Cc1ccc(-c2ccccc2NC(=O)C2C3C=CC(C3)C2C(=O)O)o1 (centres undefined)
25.1µM*	Cc1ccccc1NC(=S)NCCc1ccccc1
-13.5%	O=P(O)(O)C(O)C(F)(F)C(F)(F)C(F)(F)C(F)F (centres undefined)
-21.0%	Cc1cc(OC(=O)N2CCCCC2)cc(C)c1Cl
-17.4%	O=C(CNc1ccc(Br)cc1)c1ccccc1
12.6µM*	Cc1ccc(S(=O)(=O)CC#CCOC(=O)c2ccc([N+](=O)[O-])cc2)cc1
-12.3%	COC(=O)c1c(NC(=S)NC(=O)c2ccco2)sc2c1CCCC2
-13.3%	Cc1cc(C)nc(/N=C(\N)Nc2cc([N+](=O)[O-])ccc2C)n1
0.0%	Cc1cc(C)nc(NCCCc2ccccc2)n1
-3.6%	CCOc1ccc(NC(=O)C2CC(=O)N(c3cc(C)cc(C)c3)C2)cc1 (centres undefined)
-13.7%&-3.1%	NC1CCN(c2cccc(Cl)n2)CC1
-12.1%	COc1ccc(C2=Nc3cccc4cccc(c34)N2)cc1
2.1%	CC(C)OCCCNCC(O)c1ccccc1 (centres undefined)
-8.5%	Cn1c(=O)c2c(nc(N3CCCCCC3)n2CCSc2nc3ccccc3o2)n(C)c1=O
-10.7%	CC1CCCCN1CC(=O)Nc1sccc1C#N (centres undefined)
-6.4%	O=C1NC2(CCCCC2)N=C1c1ccc(Br)cc1
-27.7%	Cc1ccc(NC(=O)c2csc(-c3ccccc3)c2C)cc1
u	COCc1c(C(=O)OCC(=O)N2c3ccccc3NC(=O)C2(C)C)oc2ccccc12
-3.1%	COc1cccc(NC(=O)CN(c2ccc(C)cc2)S(=O)(=O)c2c(C)nn(C)c2C)c1
-7.1%	Cc1ccc(NN2C(=O)C=C(c3ccc(Cl)cc3)C2=O)cc1
28.2µM*	Cc1cc(C(=O)COC(=O)c2n[nH]c3ccccc23)c(C)n1CC1CCCO1 (centres undefined)

Carrying on.
HPGD inh	SMILES
-8.6%	CCOc1ccc(N2C(=O)CC(S/C(N)=N/N=C/c3cccs3)C2=O)cc1 (centres undefined)
-5.1%	COc1ccc(C(C(=O)NC2CCCCC2)N(C(=O)Cc2c[nH]c3ccccc23)c2ccc(NC(C)=O)cc2)cc1OC (centres undefined)
-24.9%	COc1ccccc1NC(=O)COC(=O)c1ccccc1OCC(=O)Nc1ccc(SC(F)F)cc1
u	COc1ccc(C(=O)c2nc3c(n2O)CCCCC3)cc1
1.1%	CC12CCC(C(=O)N(CC(O)CN3CCCCCC3)C1=O)C2(C)C (centres undefined)
-6.4%	COc1ccc2c(c1)CCN=C2Cc1ccc(OC)c(OC)c1
-13.3%	N#Cc1c(-c2ccccc2)c(C#N)c2nc3ccccc3n2c1N
u	O=C(O)CCCCCn1c(SCc2cc(=O)n3cc(Cl)ccc3n2)nc2ccsc2c1=O
-8.4%	O=C(COC(=O)[C@@H]1CCCN1S(=O)(=O)c1ccc(Cl)cc1)NCC(F)(F)F
-6.1%	O=C(CN1C(=O)CCS(=O)(=O)c2ccccc21)Nc1cccc(Cl)c1
-8.4%	COc1ccc(-c2nnc3n2N=C(c2ccccc2)CS3)cc1OC
-8.1%	CCc1ccc(N/C(SCc2cccc(F)c2)=C(/C#N)C(=O)NCc2ccco2)cc1
2.0%	CCOC(=O)C1C(=O)CC(C)(O)C(C(=O)OCC)C1/C=C/c1ccccc1 (centres undefined)
-8.2%	Cc1cc(C)c2c(-n3cccc3)c(C(=O)NNS(=O)(=O)c3ccccc3)sc2n1
-21.4%	COc1ccc2c(CC(=O)OCC(=O)Nc3ccccc3[N+](=O)[O-])coc2c1
-8.8%	Cc1cc2c(cc1S(N)(=O)=O)S(=O)(=O)CCC2
3.8%	CCN(C(=O)CSc1nncs1)c1c(N)n(Cc2ccccc2)c(=O)[nH]c1=O
-7.5%	CCN(CCCNC(=O)C1CCC(=O)N1C1CCCC1)c1cccc(C)c1 (centres undefined)
-6.1%	COc1ccccc1Nc1ncccc1C(=O)O
7.94µM*	Cc1n[nH]c(=S)n1/N=C/c1ccc(OCc2ccc(Cl)cc2)cc1
-5.6%	COc1ccc(-c2noc(=O)[nH]2)cc1
u	O=C(O)CSCc1cnn(-c2ccccc2)c1-n1cccc1
-4.4%	Nc1ccc(S(=O)(=O)N2CCCC2)cc1
u	O=C(c1ccc2c(c1)[nH]c(=S)n1c3ccccc3nc21)N1CCN(c2ncccn2)CC1
-8.8%	O=C(Cn1c(=O)c2c(ncn2Cc2ccccc2)n(Cc2ccccc2)c1=O)N1CCc2ccccc21
-16.4%	CNc1cc(OC)c(C(=O)N[C@@H]2CCN(Cc3ccccc3)[C@H]2C)cc1Cl

Quoted from above for reference:
HPGD inh	SMILES
u	O=C(c1ccc2c(c1)[nH]c(=S)n1c3ccccc3nc21)N1CCN(c2ncccn2)CC1
-8.8%	O=C(Cn1c(=O)c2c(ncn2Cc2ccccc2)n(Cc2ccccc2)c1=O)N1CCc2ccccc21
-16.4%	CNc1cc(OC)c(C(=O)N[C@@H]2CCN(Cc3ccccc3)[C@H]2C)cc1Cl
